Assay outcomes deposited in PubChem BioAssay by ICCB-Longwood Screening Facility, Harvard Medical School.
S aureus helic = inhibitors of S. aureus replicative helicase, primary screen, biochemical, fluorescence unwinding readout; replicative DNA helicase (DnaC/DnaB), Staphylococcus aureus; 0.05% of 120,000 active; inhibition, %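 (tested at about 80 µM)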; purified S. aureus helicase, fluorescence unwinding assay; about half of the hits fall short of the stated cut; AID 485395, 2010;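 active = both duplicates at 50% or more, or one of them with a favoured structure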;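 note: 0% = mean of negative control wells and 100% = mean of positive control wells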
MgrA DNA FP = S. aureus MgrA activity modulators, primary screen, biochemical, S. aureus Newman, fluorescence polarization | MgrA-DNA binding | inhibition, %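 (about 10 µg/mL by stock and volumes)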 | 0.13% of 84,000 active;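 active = above 50% in either of two replicates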;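 note: 0% = protein plus DNA without compound and 100% = DNA alone without protein; higher means less MgrA bound to DNA so lower polarization; one replicate is shown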
An asterisk follows results filed as active; x = not tested or not shown; & = joins results of further samples. Not all compounds are listed; rates above refer to the full screens.

Every second line gives: S aureus helic, MgrA DNA FP
COc1cc(OC)c2c(c1Cl)O[C@]1(C2=O)C(OC)CC(=O)C[C@H]1C (stereo partly drawn)
    x, -2.8
CC(=O)N1CC(C)OC1c1ccccc1 (stereo not drawn)
    5, x
COc1cccc(C=Nc2ccc(-c3nc4ccc(C)cc4o3)cc2)c1O
    1, -3.1
O=S(=O)(NC1CC1)c1ccc2ccccc2c1
    -6, 0.8
Cc1ccc(NC(=O)c2cnc3sccn3c2=O)cc1
    -6, x
N=c1sc2ccccc2n1-c1ccccc1
    19, -2.1
CN(CC(=O)Nc1ccc2c(c1)CCC2)Cc1cccc(F)c1
    -19, x
CCc1ccccc1NC(=O)CNC1CCCCC1
    4, -1.1
Cc1ccccc1Nc1nc(N)nc(COC(=O)Cn2[nH]c(=O)c3ccccc3c2=O)n1
    -15, x
COc1cccc(OCCOc2cccc(OC)c2)c1
    x, 2.7
CCOc1ccc(N2CCc3c2nc2ccc(Br)cc2c3N)cc1
    11, 1.6
O=C1NC(c2ccccc2)=N/C1=C\c1ccco1
    -10, 0.2
CN(C1CCCCC1)S(=O)(=O)c1ccc2c(c1)c(=O)c(C(=O)NCCN1CCCC1)cn2C
    -8, -0.4
Cc1noc2ncnc(N3CCCCC3)c12
    -19, x
CC(C)(C)NCC(=O)Nc1ccccc1-c1ccccc1
    -13, x
O=C(Nc1ccccc1)C1Cc2ccccc2CN1S(=O)(=O)c1ccc(F)cc1 (stereo not drawn)
    1, -1.8
Cc1cccc(OCC(O)Cn2c(=N)n(C)c3ccccc32)c1 (stereo not drawn)
    1, x
CCOC(=O)CSc1ccccn1
    5, 0.8
O=C(O)CSc1nc2ccccc2c2nc3ccccc3n12
    10, x
CC1Cc2ccccc2N1C1=CC(=O)CCC1 (stereo not drawn)
    -18, -1.1
C(=N\n1cnnc1)/c1ccc(N2CCOCC2)s1
    11, x
COc1ccc(-c2cn(-c3ccccc3)c3[n+]2CCS3)cc1
    3, 1.6
O=c1[nH]nc(COc2ccccc2)c2nnn(Cc3ccccc3)c12
    17, x
COCc1nc(-c2ccc(-c3ccc(OC)cc3)nc2OC)no1
    3, x
Cc1ccc(S(=O)(=O)NC(=O)OCCn2ncc3ccccc3c2=O)cc1
    x, -3.6
COc1cc(C2NC(=O)NC(C)=C2C(=O)OCCc2ccccc2)cc(OC)c1OC (stereo not drawn)
    x, 0.5
COc1ccc(Cn2c(CCC(=O)Nc3ccccc3)nc3cccnc32)cc1
    -4, x
CC(C)OC(=O)c1cn(CCC#N)nc1-c1ccccc1
    -2, -1.5
COc1ccc(-c2noc(N3CCCC3)n2)cc1OC
    12, -1.4
O=C(Cc1nnc(-c2ccc(Br)cc2)o1)NC1CCCCCC1
    -26, x

Part of the list above in order of number of heavy atoms, descending:
Every second line gives: S aureus helic, MgrA DNA FP
COc1ccc(-c2cn(-c3ccccc3)c3[n+]2CCS3)cc1
    3, 1.6
CC(C)OC(=O)c1cn(CCC#N)nc1-c1ccccc1
    -2, -1.5
CC1Cc2ccccc2N1C1=CC(=O)CCC1 (stereo not drawn)
    -18, -1.1

(cont.)
Every second line gives: S aureus helic, MgrA DNA FP
O=C1CSC(=S)N1CC1CC1
    x, 3.5
COC(=O)Cn1c(=O)c(C(=O)CSc2nnc(C)c(=O)n2N)c(N)n(Cc2ccccc2)c1=O
    -16, x
O=C(O)COCC(=O)Nc1ccc(N2CCOCC2)nc1N1CCOCC1
    -20, x
C=CCN(C(C)=O)c1nc(C)c(Br)c(OC)n1
    2, 0.1
CCC(C(=O)N1CCN(c2ccccn2)CC1)c1ccccc1 (stereo not drawn)
    10, -0.8
Cc1nnc(SCC(=O)NCc2ccc3c(c2)OCO3)s1
    3, x
CC(CN(C)Cc1ccccc1)OC(=O)C1COc2ccccc2O1 (stereo not drawn)
    15, -3.1
O=C(N=C1N=c2ccccc2=N1)c1ccc2c(O)n(Cc3ccncc3)c(O)c2c1
    -12, x
OC1CCN(Cc2ccc[nH]2)CC1
    6, 3.6
O=C(O)c1ccc(-c2cccc(C(F)(F)F)c2)o1
    -3, x
COCC(C)n1c(SCc2ccccc2C#N)nc2ccccc2c1=O (stereo not drawn)
    -11, x
C/C(CC1(O)C(=O)N(Cc2ccccc2)c2ccccc21)=N\O (stereo not drawn)
    2, x
CC(C(=O)Nc1ccc(Cl)cc1Cl)N1CCCN(c2ccc(C(F)(F)F)cn2)CC1 (stereo not drawn)
    -1, x
CCOC(=O)/C(C#N)=C/Nc1nc(C)cs1
    -120, x
CSc1cccc(NC(=S)Nc2cc3c(c(N)c2C)C(C)(C)CC3(C)C)c1
    x, -1.2
Cc1cc2ccccc2n1-c1ccc(C(=O)N2CCC(C(=O)N3CCN(C)CC3)CC2)s1
    7, x
O=C(COC(=O)C1CCCCC1)Nc1ccc(I)cc1
    -8, -1.5
COc1ccccc1OCC(O)CNCc1ccc2c(c1)OCO2 (stereo not drawn)
    x, -0.9
CCCCN(c1ccccc1)S(=O)(=O)c1cccc2cccnc12
    15, 2.5
CCn1c2ccccc2n2c(SCc3nc4ccccc4[nH]3)nnc12
    10, x
CCCN(CC(=O)Nc1cc(C)on1)CC(=O)Nc1ccc(F)c(F)c1F
    2, x
O=C(Nc1ccc2c(c1)nc1n2CCN(c2ccccc2)C1)c1ccccc1
    -3, 0.1
Cc1c(N2C(=O)c3ccccc3C2=O)c(=O)n(-c2ccccc2)n1C
    -4, x
Cc1cc(C(F)(F)F)c2c(N)c(C(=O)c3ccc(Cl)s3)sc2n1
    x, -5.0
CCc1ccc(NC(=S)NN(C)C)cc1
    10, x
COc1ccc(-c2nc3ccccn3c2NCc2ccc3c(c2)OCO3)cc1
    2, 2.5
N#Cc1ccc(-c2ccccc2)nc1SCC(=O)c1ccccc1
    -4, -1.3
O=C1CN(C(=S)Nc2ccc(F)cc2)CCN1
    -11, x
Cc1ccc(NC(=O)C2CC(=O)NC3=C2C(=O)CC(C)(C)C3)cc1C (stereo not drawn)
    0, x
COc1cc(OC)cc(C(=O)N=c2sc3cc(C)cc(C)c3n2C)c1
    -23, x

Additional entries:
Every second line gives: S aureus helic, MgrA DNA FP
CC(=O)Nc1ccc(SCC(=O)N2CCCCC2C)cc1 (stereo not drawn)
    -7, x
COC(=O)c1cn(-c2ccccc2)nc1C(=O)c1ccccc1
    4, -0.2
CC1=C(C#N)C(c2sc3ccccc3c2Cl)C(C#N)=C(C)N1
    x, 0.1
CCCC(=O)N1c2ccccc2NC2=C(C(=O)CCC2)C1c1cccs1 (stereo not drawn)
    -5, x
COC(=O)c1ccc(C)c(NC(=O)c2ccc3c(c2)CC(C)N3S(C)(=O)=O)c1 (stereo not drawn)
    7, x
CC(=O)Nc1ccc(N=C2C(=O)N(CCC(C)C)c3ccccc32)cc1
    -7, x
FC(F)(F)c1ccncc1-c1noc(-c2ccccc2)n1
    x, -4.5
Cc1ccc(C(C)C)c(OCC(=O)NC2CCN(C)CC2)c1
    4, 0.0
CCc1ccc(S(=O)(=O)Nc2ccc3oc(=O)sc3c2)cc1
    16, 2.0
O=C(NCC1CCCC(CNC(=O)N2CCc3ccccc32)C1)N1CCc2ccccc21 (stereo not drawn)
    7, x
NC(=O)CN1C(=O)Cc2ccccc21
    5, 0.0
CCOC(=O)c1cnn2c1nc(N1CCOCC1)c1ccccc12
    0, x
CN(C(=O)c1ccc(OC(F)(F)F)cc1)C1CCCCC1
    x, -1.8
CCOC(=O)c1cnn(CCOC(=O)c2ccccc2F)c1NC(=O)c1ccccc1F
    15, -0.6
Oc1c(Br)cc(CN2CCCCC2)c2cccnc12
    3, x
CC(=O)Nc1nc2nc(C)cc(C)n2[n+]1-c1ccccc1
    13, -3.0
Nn1c(Nc2ccc(Cl)cc2)nncc1=O
    -16, x
CCN1CCN(c2nnc(-c3cccs3)c3ccccc23)CC1
    10, x
CCN(CC)S(=O)(=O)c1ccc(Cl)nc1
    -16, -2.2
COc1ccc(-c2cn[nH]c2C)cc1
    x, 0.9
COc1ccc2c(c1)SC1=NCCS(=O)(=O)N12
    -9, x
Cc1cc(=O)[nH]n1C
    17, x
C=CCNC(=O)C1CCCN(S(=O)(=O)c2cc(Cl)ccc2OC)C1 (stereo not drawn)
    0, -2.2
CNCC(O)c1ccc(OC(=O)C(C)(C)C)c(OC(=O)C(C)(C)C)c1 (stereo not drawn)
    x, 0.8
CCc1ccc2c(CSc3nccn3C)cc(=O)oc2c1
    6, x
N/C(=N\O)c1ccc(C2SCCS2)cc1
    x, -2.8
Cc1cc(I)ccc1-n1[nH]c(C(F)(F)F)cc1=O
    5, 2.8
CC(C)N1CC(C(=O)Nc2ccccc2)CC1=O (stereo not drawn)
    15, -3.0
O=C(Nc1nnc(-c2ccc(Cl)cc2)o1)c1ccco1
    9, x
Cc1nc(SCC(=O)N2CCNC2=O)n(C2CCCCC2)c1C
    -16, x

(list continues)
Every second line gives: S aureus helic, MgrA DNA FP
OC(CNCc1ccc2c(c1)OCO2)COc1ccc(Cl)c(Cl)c1 (stereo not drawn)
    x, -1.9
CCOC(=O)c1c(NC=O)sc(C)c1C
    1, x
COc1ccc(OCC2CCNCC2)cc1
    3, 0.9
COc1ccc(-c2onc(C)c2-c2cscn2)c(O)c1
    20, x
O=C1NCCN1CCNS(=O)(=O)c1cc(C(F)(F)F)cc(C(F)(F)F)c1
    x, -1.9
c1ccc(C2(c3ccccc3)OCC(Cn3cncn3)O2)cc1 (stereo not drawn)
    -4, 3.0
CNc1ccccc1C(C)(C)c1ccnn1-c1ccccc1
    -13, 1.1
COc1ccc(Cn2c(=O)[nH]c3ncccc3c2=O)cc1
    -12, x
Cc1oc(-c2ccc(C(=O)NCc3ccccc3)cc2)nc1CS(=O)c1ccccc1 (stereo not drawn)
    17, x
O=C1Nc2ccccc2C(=O)N2CCCC12 (stereo not drawn)
    12, -0.5
Ic1cccc2c1N1CCN2CC1
    -25, x
CCCCn1c(=S)[nH]c2cc(Cl)ccc2c1=O
    -10, x
Cn1c(SCCC(=O)Nc2ccccc2)nnc1-c1cc2ccccc2o1
    -3, 2.5
Cn1ncc2c(NC3CCCCC3)ncnc21
    x, 2.0
CCN(CC)S(=O)(=O)c1ccc(C(=O)NCc2ccc3[nH]c(C)cc3c2)cc1
    1, x
C=CCn1c(N)c(-c2nc3ccccc3n2C)sc1=S
    -5, x
COc1ccc(NC(=O)CSc2nc(NS(=O)(=O)c3ccccc3)cc(=O)[nH]2)cc1
    15, 2.5
Nc1c(N2CCN(c3ccccc3)CC2)c2ccccc2oc1=O
    10, 2.4
O=C(CN1C(=O)c2cccnc2Oc2ccc(Cl)cc21)N1CCCCC1
    17, x
Cc1ccc(S(=O)(=O)/N=C/c2ccco2)cc1
    0, x
COC(=O)CCC(=O)Nc1ccc(S(N)(=O)=O)cc1
    x, -0.8
O=C(NCCc1ccccc1)C1CC(=O)N(Cc2ccc3c(c2)OCO3)C(=Nc2ccc(F)cc2)S1 (stereo not drawn)
    x, -1.5
Ic1ccc2nc(-c3ccccc3)cn2c1
    x, -1.0
Cc1noc(C)c1CN1CCN(c2ccccc2)CC1
    -24, x
COc1ccc2cc(C(C)C(=O)N3CCC(C(N)=O)CC3)ccc2c1 (stereo not drawn)
    -7, x
O=C(Cn1cnc2c(cnn2CCO)c1=O)N1CCOCC1
    7, x
c1ccc2c(c1)CCN(c1ncnc3sccc13)C2
    15, x
CNC(=S)NCCN1CCOCC1
    4, -1.5
Cc1ccccc1S(=O)(=O)Nc1nc2ccccc2nc1Nc1ccc(S(=O)(=O)N2CCOCC2)cc1
    -18, x
CC(C)Cc1ccc(C(C)C(=O)NC(Cc2ccccc2)C(N)=O)cc1 (stereo not drawn)
    -1, x

Reformatted tab-delimited: 6 of the compounds above.
SMILES	S aureus helic	MgrA DNA FP
O=C(NCCc1ccccc1)C1CC(=O)N(Cc2ccc3c(c2)OCO3)C(=Nc2ccc(F)cc2)S1 (stereo not drawn)	x	-1.5
Ic1ccc2nc(-c3ccccc3)cn2c1	x	-1.0
Cc1noc(C)c1CN1CCN(c2ccccc2)CC1	-24	x
COc1ccc2cc(C(C)C(=O)N3CCC(C(N)=O)CC3)ccc2c1 (stereo not drawn)	-7	x
O=C(Cn1cnc2c(cnn2CCO)c1=O)N1CCOCC1	7	x
c1ccc2c(c1)CCN(c1ncnc3sccc13)C2	15	x

More entries.
Every second line gives: S aureus helic, MgrA DNA FP
O=C(Nc1cccc(C(F)(F)F)c1)c1ccc2nonc2c1
    x, -2.8
CCCc1c(C(=O)Nc2ccc3ccccc3n2)cnn1-c1ccccc1
    x, -0.2
CCCSc1nnc(NC(=O)c2nn(-c3cccc(C)c3)ccc2=O)s1
    -16, x
CCc1ccc(OCCCC(=O)NCc2ccco2)cc1
    6, -0.7
O=C(OCC(=O)N1CCCCC1)c1ccc(NS(=O)(=O)c2ccc3c(c2)OCCO3)cc1
    12, x
Nc1ccc(S(=O)(=O)Nc2cnc3ccccc3n2)cc1
    x, 3.9
CS(=O)(=O)N1CCc2cc(C(=O)CSc3nnc4ccccn34)ccc21
    18, x
CCOC(=O)NN(C(=O)OCC)c1c(C)c(C)c(C)c(C)c1C
    x, -0.3
CN(C)CCN(Cc1cccs1)c1ccccn1
    x, 0.3&2.7
CC(=O)N1CCC(N(C(=O)Nc2cccc(C)c2)C2CCCC2)CC1
    22, x
COc1cccc(C(=O)Nc2ccc3c(c2)COC3=O)c1
    2, -2.3
CCOc1ccc2c(c1)sc(=NC(=O)c1ccc(S(=O)(=O)N3CCc4ccccc43)cc1)n2C
    4, 2.5
CCOc1cc(/C=C2/SC(=S)N(CC(=O)O)C2=O)ccc1OCc1ccccc1
    x, 1.7
